ugtP null kill = kills S. aureus RN4220 lacking UgtP; S. aureus RN4220 ugtP deletion, OD600 growth, 16 h; some inactives read as strong as hits; growth inhibition, % (test concentration not listed); 330,000 compounds, 0.54% hits;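 active = z-score under -3 and OD600 up to 0.15 on both plates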;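 also: plate controls were untreated wells for no effect and antibiotic for full effect; wells of about 80 µL received 100 nL stock; the first replicate is given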
Mtb hypoxia inh = reduces hypoxia-regulated biosensor signal in M. tuberculosis; M. tuberculosis hypoxia-regulated fluorescent reporter, fluorescence; fluorescence inhibition, % (concentration not given with the values); 300,000 compounds, 0.1% hits; AID 1159583;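 active = 35 to 45% if threefold the growth effect, above 45% if 1.5-fold the growth effect; inactive = the rest, general growth blockers included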;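 also: wells of about 50 µL received 100 nL stock; 0% = vehicle wells and 100% = reference inhibitor wells; whole bacteria with a GFP reporter of the hypoxia response; strong numbers were not always called active; many hits fall short of the cut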
Sa RN4220 lethal = kills Staphylococcus aureus RN4220; S. aureus RN4220 growth, OD600, 16 h; inhibition, % (no concentration beside the values); 330,000 compounds, 0.33% hits;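 active = z-score of -3 or lower and OD600 up to 0.18 on both plates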;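 also: plate controls were untreated cells for no effect and reference antibiotic for full effect; stock transfer was 100 nL into about 80 µL; one replicate is shown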
PrP 5UTR inh = suppresses PrP 5' UTR mRNA reporter expression | 340,000 compounds, 0.35% hits | cell-based PrP 5' UTR mRNA reporter, plate reader | AID 488862 | inhibition, % (test concentration not listed);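 active = every replicate at 50% or more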;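 also: 0 = median of the neutral control wells; tested in H4 reporter cells; numbers are from one replicate; inactives centre near -14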
BJeLR lethal = BJeLR cell viability loss | inhibition, % (no concentration beside the values) | 300,000 compounds, 0.17% hits | BJeLR (HRASV12) viability, CellTiter-Glo ATP luminescence, 48 h; reference of the scale not given here;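 active = replicate mean above 50%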;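 also: 50 nL library stock added to about 25 µL; numbers are from one replicate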
Autofluor counter = counter-screen for toxin protease inhibitors: compound fluorescence. compound autofluorescence counterscreen, microsphere flow cytometry; stronger effect = higher value. fluorescence intensity (test concentration not listed). 360,000 compounds, 3.1% hits. AID 624483;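 active = at least 3 SD above the mean of all compounds, about 16000 in these data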;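 also: 100 nL of 1 mM stock went into each well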
Mtb hypoxia inh growth = second read-out of Mtb hypoxia inh, no call of its own (marks repeat the call); growth inhibition, %; measured here: M. tuberculosis growth (absorbance);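 0% = vehicle and 100% = reference antibiotic; read after six days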
An asterisk follows results filed as active; x = not tested or not shown.

Key to letters: A = ugtP null kill; B = Mtb hypoxia inh; C = Mtb hypoxia inh growth; D = Sa RN4220 lethal; E = PrP 5UTR inh; F = BJeLR lethal; G = Autofluor counter
> CSc1ccc(/C=N/NC(=O)CN2CCN(Cc3ccccc3Cl)CC2)cc1
  A: x; B: x; C: x; D: x; E: -4; F: 0; G: 2611
> Cc1ccc(C(=O)Nc2ccc3c(c2)OCO3)o1
  A: -4; B: -2; C: 3; D: 2.6; E: -69; F: 13; G: 2804
> N#Cc1cc(NCC2CCCO2)c([N+](=O)[O-])cc1C#N (centres undefined)
  A: 57; B: -20; C: -3; D: 41; E: -18; F: 7; G: 2440
> Cc1ccccc1CN1C[C@@H]2C[C@@H](c3cn[nH]c3-c3ccccc3)N3CCC[C@@]23C1=O
  A: -6; B: -8; C: 1; D: 1.4; E: -17; F: -16; G: 4521
> Cc1ccc(C)c(S(=O)(=O)NCc2ccc(C(=O)N3CCN(c4ccccc4)CC3)cc2)c1
  A: 10; B: 3; C: -4; D: 1.7; E: 4; F: 2; G: 4394
> CCSC1=NCCN1S(=O)(=O)c1ccc(Cl)cc1
  A: 2; B: -1; C: 0; D: -1.9; E: -27; F: -2; G: 2181
> O=C(NC(c1cccnc1)C(F)(F)F)c1cc(COc2ccc3c(c2)CCCC3)on1 (centres undefined)
  A: -4; B: 11; C: 6; D: 0.7; E: -27; F: 17; G: 4310
> Cc1ccc(C(CNC(=O)c2ccco2)N2CCN(C)CC2)cc1 (centres undefined)
  A: 10; B: -1; C: -12; D: 1.1; E: -15; F: 1; G: x
> CCOC(=O)CNC(=O)CSP(=S)(OCC)OCC
  A: 8; B: 7; C: 0; D: 4.5; E: 1; F: 11; G: 15550
> CC(C)N1C(=O)NC2(c3ccccc3)N(C)C(=O)N(C)C12c1ccccc1 (centres undefined)
  A: 5; B: -8; C: 1; D: 7.4; E: -18; F: 5; G: 2384
> CN(C)c1ccc(C2CC(c3cccc(NS(C)(=O)=O)c3)=NN2C(=O)c2ccccc2)cc1 (centres undefined)
  A: 10; B: -6; C: -1; D: 2.1; E: -26; F: -5; G: 4657
> CCN1CCN(C(=O)c2ccc(CNS(=O)(=O)c3cccc(OC)c3)cc2)CC1
  A: -1; B: 5; C: 0; D: 2.0; E: 6; F: 0; G: 5085
> COc1cc(OC)nc(Oc2ccc(NC(C)=O)cc2)n1
  A: 13; B: -2; C: 4; D: 1.0; E: 5; F: -2; G: 2090
> Cc1cccc2cc(C#N)c(NCCNC(=S)NCCCN3CCOCC3)nc12
  A: 11; B: 9; C: 7; D: 3.2; E: -10; F: 0; G: 10438
> CN(C)CCNC(=S)Nc1ccc(Cl)cc1
  A: 11; B: x; C: x; D: -2.9; E: -27; F: 5; G: 2201
> O/N=C(\c1ccccn1)C1CC1c1ccccc1 (centres undefined)
  A: x; B: x; C: x; D: x; E: -17; F: 1; G: 4268
> COCC(=O)N(Cc1cc2cc(C)ccc2[nH]c1=O)c1cccc(C)c1C
  A: -2; B: -12; C: -1; D: 0.5; E: -16; F: 2; G: 3753
> CCCCC(=O)NNC(=S)NC(=O)c1cccc([N+](=O)[O-])c1
  A: -6; B: 0; C: 10; D: 11; E: -8; F: -13; G: 6147
> CC(C)(C)c1cn(-c2ccc(Cl)cc2)c(=S)[nH]1
  A: 10; B: -3; C: 0; D: -0.7; E: -21; F: -1; G: 8397
> Cn1[nH]c(C(F)(F)F)c(C=Nc2ccc(Cl)cc2)c1=O
  A: 0; B: 5; C: 2; D: 1.7; E: -13; F: -6; G: 2525
> COc1ccc(OC)c(NC(=O)CN2C(=O)COc3ccc(C)cc32)c1
  A: 0; B: 12; C: 16; D: -2.2; E: 14; F: -13; G: 3725
> CCC1(CC)C(=O)NC(=O)N(CCc2ccccn2)C1=O
  A: 6; B: 11; C: 10; D: 2.6; E: -11; F: x; G: 3515
> COc1ccc(C)cc1NC(=O)C(OC(=O)c1cccc(S(=O)(=O)N(C)c2ccccc2)c1)c1ccccc1 (centres undefined)
  A: 2; B: 0; C: -4; D: 3.9; E: -93; F: -6; G: 2341
> Fc1ccc(CSc2nc3ncccc3[nH]2)cc1
  A: -1; B: x; C: x; D: 1.6; E: 25; F: -1; G: 2163
> O=C(c1ccc(Cl)cc1)N1CCCC(C(=O)N2CCCCC2)C1 (centres undefined)
  A: 2; B: -5; C: 1; D: 2.4; E: -11; F: -4; G: 4865

Quoted at random: 5 compounds from above.
Key to letters: A = ugtP null kill; B = Mtb hypoxia inh; C = Mtb hypoxia inh growth; D = Sa RN4220 lethal; E = PrP 5UTR inh; F = BJeLR lethal; G = Autofluor counter
> CSc1ccc(/C=N/NC(=O)CN2CCN(Cc3ccccc3Cl)CC2)cc1
  A: x; B: x; C: x; D: x; E: -4; F: 0; G: 2611
> N#Cc1cc(NCC2CCCO2)c([N+](=O)[O-])cc1C#N (centres undefined)
  A: 57; B: -20; C: -3; D: 41; E: -18; F: 7; G: 2440
> Cc1ccccc1CN1C[C@@H]2C[C@@H](c3cn[nH]c3-c3ccccc3)N3CCC[C@@]23C1=O
  A: -6; B: -8; C: 1; D: 1.4; E: -17; F: -16; G: 4521
> CCCCC(=O)NNC(=S)NC(=O)c1cccc([N+](=O)[O-])c1
  A: -6; B: 0; C: 10; D: 11; E: -8; F: -13; G: 6147
> COc1ccc(C)cc1NC(=O)C(OC(=O)c1cccc(S(=O)(=O)N(C)c2ccccc2)c1)c1ccccc1 (centres undefined)
  A: 2; B: 0; C: -4; D: 3.9; E: -93; F: -6; G: 2341

Some of these compounds in order of molecular weight, ascending:
Key to letters: A = ugtP null kill; B = Mtb hypoxia inh; C = Mtb hypoxia inh growth; D = Sa RN4220 lethal; E = PrP 5UTR inh; F = BJeLR lethal; G = Autofluor counter
> O/N=C(\c1ccccn1)C1CC1c1ccccc1 (centres undefined)
  A: x; B: x; C: x; D: x; E: -17; F: 1; G: 4268
> CC(C)N1C(=O)NC2(c3ccccc3)N(C)C(=O)N(C)C12c1ccccc1 (centres undefined)
  A: 5; B: -8; C: 1; D: 7.4; E: -18; F: 5; G: 2384
> CN(C)c1ccc(C2CC(c3cccc(NS(C)(=O)=O)c3)=NN2C(=O)c2ccccc2)cc1 (centres undefined)
  A: 10; B: -6; C: -1; D: 2.1; E: -26; F: -5; G: 4657

The list continues.
Key to letters: A = ugtP null kill; B = Mtb hypoxia inh; C = Mtb hypoxia inh growth; D = Sa RN4220 lethal; E = PrP 5UTR inh; F = BJeLR lethal; G = Autofluor counter
> Cn1c(C(=O)NCCCN2CCCCC2)cc2sccc21
  A: 6; B: 3; C: 5; D: 3.5; E: 6; F: -1; G: 8510
> CC1(C)OC(=O)N(CC(=O)Nc2cccc(C(F)(F)F)c2)C1(C)O (centres undefined)
  A: 0; B: 5; C: 0; D: 2.0; E: -41; F: 1; G: 4721
> Cn1cc(/C=N\NC(=O)c2cccs2)c2ccccc21
  A: x; B: x; C: x; D: x; E: -95; F: 4; G: 2609
> Cc1n[nH]c(=O)nc1NCCN(C)C
  A: 0; B: x; C: x; D: 4.9; E: -22; F: -2; G: 2780
> COc1ccc(C(=O)NNC(=O)CSc2nnc(COc3ccccc3OC)n2C)cc1
  A: 5; B: 11; C: 4; D: 1.8; E: -7; F: -12; G: 2020
> O=C(NC1CCCC1)C(c1ccc(F)cc1)N(C(=O)c1csnn1)c1ccccc1 (centres undefined)
  A: -2; B: -1; C: -1; D: 2.1; E: -6; F: 4; G: 4178
> Cc1ccccc1OCC(=O)Nc1ccc(N2CCN(S(C)(=O)=O)CC2)cc1
  A: -2; B: 14; C: 7; D: 2.6; E: -9; F: -3; G: 3720
> CCC(C)NCCOCCOc1ccc(C)cc1Br (centres undefined)
  A: 6; B: 14; C: 6; D: 1.5; E: -1; F: 6; G: 15462
> O=C(c1ccc2c(c1)OCCO2)C1CCN(C(=O)Nc2ccc(F)cc2)CC1
  A: 3; B: -5; C: 7; D: 0.2; E: -9; F: -6; G: 3918
> COCCn1c(=N)c(S(=O)(=O)c2ccc(F)cc2)cc2c(=O)n3ccccc3nc21
  A: 5; B: 3; C: -3; D: 3.3; E: -13; F: 4; G: 5398
> Cn1c(=O)[nH]c(=O)c2c1nc(N1CCCCC1)n2CCCSc1nnnn1-c1ccccc1
  A: 1; B: -3; C: 3; D: 7.9; E: -1; F: -5; G: 9206
> O=C(Nc1ccnn1C1CCN(C(=O)c2ccc(Cl)cc2)CC1)C1CC1
  A: 4; B: 12; C: 8; D: 4.1; E: -8; F: 8; G: 4975

Complete entries, quoted from the list. Order of screens: ugtP null kill	Mtb hypoxia inh	Mtb hypoxia inh growth	Sa RN4220 lethal	PrP 5UTR inh	BJeLR lethal	Autofluor counter
COc1ccc(C(=O)NNC(=O)CSc2nnc(COc3ccccc3OC)n2C)cc1 in the list: 5	11	4	1.8	-7	-12	2020
O=C(c1ccc2c(c1)OCCO2)C1CCN(C(=O)Nc2ccc(F)cc2)CC1 in the list: 3	-5	7	0.2	-9	-6	3918

Screening data deposited in PubChem BioAssay by several laboratories.
